Source: PubChem
RN4220 kill = growth inhibition of S. aureus RN4220, primary screen, OD600 | 16 h | inhibition, % (concentration not given with the values) | hit rate 0.33% among 330,000 | AID 1259311, 2017;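 active = z-score of -3 or lower and OD600 up to 0.18 on both plates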;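 note: plate controls were untreated cells for no effect and reference antibiotic for full effect; stock transfer was 100 nL into about 80 µL; one replicate is shown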
Mtb hypoxia inh = PubChem AID 1159583. M. tuberculosis hypoxia-regulated fluorescent reporter, fluorescence. fluorescence inhibition, % (no concentration beside the values). hit rate 0.1% among 300,000;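 active = 35 to 45% if threefold the growth effect, above 45% if 1.5-fold the growth effect; inactive = the rest, general growth blockers included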;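 note: wells of about 50 µL received 100 nL stock; 0% = vehicle wells and 100% = reference inhibitor wells; whole bacteria with a GFP reporter of the hypoxia response; strong numbers were not always called active; many hits fall short of the cut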
ugtP null kill = growth inhibition of ugtP-null S. aureus, primary screen, RN4220 ugtP deletion, OD600; 16 h; some inactives read as strong as hits; hit rate 0.54% among 330,000; growth inhibition, % (test concentration not listed); AID 1259309, 2017;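 active = z-score under -3 and OD600 up to 0.15 on both plates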;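 note: plate controls were untreated wells for no effect and antibiotic for full effect; wells of about 80 µL received 100 nL stock; the first replicate is given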
PrP 5UTR inh = inhibition of PrP 5' UTR reporter expression | cell-based PrP 5' UTR mRNA reporter, plate reader | inhibition, % (test concentration not listed) | hit rate 0.35% among 340,000;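 active = every replicate at 50% or more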;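 note: 0 = median of the neutral control wells; tested in H4 reporter cells; numbers are from one replicate; inactives centre near -14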
BJeLR lethal = MLPCN primary cell-based screen for lethality selective to Ras in HRASV12 cells | BJeLR (HRASV12) viability, CellTiter-Glo ATP luminescence, 48 h; reference of the scale not given here | inhibition, % (concentration not given with the values) | hit rate 0.17% among 300,000;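 active = replicate mean above 50%; inconclusive = above 50% but judged a plate artefact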;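 note: 50 nL library stock added to about 25 µL; numbers are from one replicate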
Autofluor counter = counter-screen for toxin protease inhibitors: compound fluorescence. hit rate 3.1% among 360,000. fluorescence intensity (concentration not given with the values). compound autofluorescence counterscreen, microsphere flow cytometry; hits give high values;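 active = at least 3 SD above the mean of all compounds, about 16000 in these data; inconclusive = too few beads counted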;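 note: 100 nL of 1 mM stock went into each well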
Mtb hypoxia inh growth = recorded beside Mtb hypoxia inh, whose call it bears; growth inhibition, %; measured here: M. tuberculosis growth (absorbance);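 0% = vehicle and 100% = reference antibiotic; read after six days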
Numbers without * were called inactive; u = inconclusive; x = not tested or not shown; & = joins results of further samples.

The opening 4 entries (preview)
#1 COc1ccc2c(c1OC)C(=O)N1C2SC(C)(C)[C@H]1C(=O)NC1CCCC1 (stereo partly drawn)
#2 COC(=O)C1CC1C(NC(=O)c1cccnc1)c1ccccc1 (stereo not drawn)
#3 Cc1ccc(C(=O)OCC(=O)c2ccc(S(=O)(=O)N3CCCCC3)cc2)o1
#4 COc1ccc(/C(O)=C2/C(=O)C(=O)N(Cc3cccnc3)C2c2ccccn2)cc1 (stereo not drawn)
assay / compound,1,2,3,4
Mtb hypoxia inh,x,-4&21,0,-3
BJeLR lethal,-3,x,2,-2
RN4220 kill,1.8,2.9&7.4,1.1,4.0
PrP 5UTR inh,-10,x,-9,0
Autofluor counter,5011,x,u,3239
ugtP null kill,-2,0&4,2,1
Mtb hypoxia inh growth,x,6&7,0,-10

Results, repeating the preview:
#1 COc1ccc2c(c1OC)C(=O)N1C2SC(C)(C)[C@H]1C(=O)NC1CCCC1 (stereo partly drawn)
#2 COC(=O)C1CC1C(NC(=O)c1cccnc1)c1ccccc1 (stereo not drawn)
#3 Cc1ccc(C(=O)OCC(=O)c2ccc(S(=O)(=O)N3CCCCC3)cc2)o1
#4 COc1ccc(/C(O)=C2/C(=O)C(=O)N(Cc3cccnc3)C2c2ccccn2)cc1 (stereo not drawn)
#5 N/C(=N\N=Cc1ccc2c(c1)OCO2)NN=Cc1ccc2c(c1)OCO2
#6 Cc1cc([N+](=O)[O-])ccc1-c1ccc(/C=N/NC(=O)Cc2ccccc2)o1
#7 CCCS(=O)(=O)N1CCCC(C(=O)NCCCN(CC)c2cccc(C)c2)C1 (stereo not drawn)
#8 S=C(Nc1ccccc1Cl)N(Cc1cccnc1)Cc1ccco1
#9 CCS(=O)(=O)N1CCC(C(=O)O)CC1
#10 COCCN(C(=O)c1cc(Cl)nc2ccccc12)c1c(N)n(Cc2ccccc2)c(=O)[nH]c1=O
assay / compound,1,2,3,4,5,6,7,8,9,10
Mtb hypoxia inh,x,-4&21,0,-3,3,x,12,-5,-4,-6
BJeLR lethal,-3,x,2,-2,x,-4,14,3,11,x
RN4220 kill,1.8,2.9&7.4,1.1,4.0,6.8,x,-16,4.1,1.4,3.0
PrP 5UTR inh,-10,x,-9,0,-18,3,-24,-4,-22,-9
Autofluor counter,5011,x,u,3239,3256,2528,3196,4618,3876,3762
ugtP null kill,-2,0&4,2,1,-13,x,-4,0,4,2
Mtb hypoxia inh growth,x,6&7,0,-10,-1,x,4,8,0,-1

#11 Cc1ccc(C)c(N2CCN(C(=O)CCCCn3c(=O)[nH]c4ccccc4c3=O)CC2)c1
#12 COc1cccc(NC(=O)CN(C)C(=O)c2cc(-c3ccc(C)o3)nc3ccccc23)c1
#13 CSc1cccc(NC(=O)CCCOc2ccc(Cl)cc2Cl)c1
#14 Cc1ccc(CNC(=O)c2cnc(-c3ccccn3)nc2C(F)(F)F)cc1
#15 CC(=Cc1ccccc1)C(=O)NCCc1ccccc1
#16 CC(C)(C)c1cc[n+](/C(C(=S)NC2CC2)=C(/[O-])c2ccc(Cl)s2)cc1
#17 COc1ccc(S(=O)(=O)N2CC(O)CC2C(=O)Nc2cccnc2)cc1 (stereo not drawn)
#18 CCOc1ccc(S(=O)(=O)N(C)c2ccc(OCC(=O)NCc3ccc(C(=O)OC)cc3)cc2)cc1
#19 CCCCc1nc(NCc2ccccc2)c(C#N)c2c1COC(C)(C)C2
#20 CN(CC(=O)O/N=C(\N)c1ccccn1)S(=O)(=O)c1cc(Cl)ccc1Cl
assay / compound,11,12,13,14,15,16,17,18,19,20
Mtb hypoxia inh,0,-1,14,15,3,3,3,12,x,5
BJeLR lethal,0,x,-4,-2,x,0,6,3,-10,-5
RN4220 kill,7.6,5.2,0.8,3.1,-0.8,-2.8,4.6,-1.7,0.6,4.5
PrP 5UTR inh,-17,-12,-6,-7,x,-20,-18,8,-26,8
Autofluor counter,3998,3657,4125,3720,x,3380,4579,3536,2593,10558
ugtP null kill,-1,7,-19,-1,12,-3,18,7,16,9
Mtb hypoxia inh growth,4,7,12,4,7,4,12,-2,x,5

#21 Nc1nonc1-n1nnc(C(=O)NN=Cc2c[nH]c3ccccc23)c1-c1ccccc1
#22 COc1cccc(CN(C)C(=O)c2cccc(S(=O)(=O)N3CCN(c4ccc(F)cc4)CC3)c2)c1OC
#23 COC(=O)C1=C[C@@H](C(=O)OC)[C@@H]2C3=C(C(=O)[C@@]2(C)NC(=O)c2ccccc2)[C@H](c2ccccc2)[C@@H]2C(=O)NC(=O)[C@@H]2[C@@H]3C1
#24 COc1ccc(-c2n[nH]c(C)c2-c2ccc(Cl)cc2)c(O)c1OC
#25 O=S1(=O)CCN(Cc2ccc(F)cc2)CC1
#26 CC(=O)c1nc(N2C(=O)CC(Cc3ccc(C)cc3)C2=O)sc1C (stereo not drawn)
#27 COc1ccc(OC)c(NC(=Nc2nc(C)cc(C)n2)NC(C)=O)c1
#28 CCCc1nn(C)c2c1C(c1ccncc1)C(C#N)=C(N)O2 (stereo not drawn)
#29 O=C(Nc1ccc(CN2CCCCC2)cc1)c1ccc(Br)o1
#30 COC(=O)Cc1c(O)ccn(CCc2c[nH]c3ccccc23)c1=O
assay / compound,21,22,23,24,25,26,27,28,29,30
Mtb hypoxia inh,17,14,x,4,9,8,1,x,10,16
BJeLR lethal,x,5,3,-3,5,-20,x,-5,-1,2
RN4220 kill,2.7,2.9,x,3.6,3.3,4.1,0.5,-0.2,-15,2.9
PrP 5UTR inh,x,-4,-6,-10,1,-16,x,-10,-32,-12
Autofluor counter,x,u,3551,9102,4352,2698,x,4641,2636,4544
ugtP null kill,-4,13,x,-20,1,16,-1,-2,-3,8
Mtb hypoxia inh growth,4,-1,x,4,3,6,-3,x,6,11

#31 CN1C(=O)c2cccc3c(S(=O)(=O)Nc4ccc(O)c(C(=O)O)c4)ccc1c23
#32 CC(C)CC(=O)N1CCC(N2CCN(c3ccccc3)CC2)CC1
#33 O=C(COC(=O)c1ccccc1Br)NCCC1=CCCCC1
#34 O=C(Nc1ccccc1F)c1ccc(CNS(=O)(=O)c2cccc(C(F)(F)F)c2)cc1
#35 COc1ccc(-c2nc(CSCC(=O)NC3CCN(Cc4ccccc4)CC3)c(C)o2)cc1OC
#36 CCN1CCN(c2ccc(S(=O)(=O)N3CCCCC3)cc2NC(=O)COc2ccc(F)cc2Cl)CC1
#37 Cc1ccc(S(=O)(=O)N2CCOCC2)cc1C(=O)NCC1CCCO1 (stereo not drawn)
#38 CC(NC(=O)CCSCc1ccccc1F)c1ccccc1 (stereo not drawn)
#39 Cc1cc(C)c(NC(=O)CN2C(=O)NC3(CCOc4ccccc43)C2=O)c(C)c1 (stereo not drawn)
#40 O=C(CCN1C(=O)C2C3CCC(C3)C2C1=O)OCC(=O)c1cccc([N+](=O)[O-])c1 (stereo not drawn)
assay / compound,31,32,33,34,35,36,37,38,39,40
Mtb hypoxia inh,13,x,-4,x,12,2,5,-4,x,7
BJeLR lethal,-11,8,7,-1,6,3,-2,-1,8,2
RN4220 kill,2.0,3.1,6.0,-0.1,5.1,6.9,1.2,1.7,-2.9,6.9
PrP 5UTR inh,-10,-17,-21,-19,-9,-2,1,-21,-2,-31
Autofluor counter,3759,4514,4595,2828,6554,6965,4435,3529,4663,9478
ugtP null kill,2,16,-7,-3,17,-6,5,3,-3,1
Mtb hypoxia inh growth,1,x,-5,x,-1,9,-1,2,x,2

#41 Cc1ccc(C)c(NS(=O)(=O)c2ccc(NC(=O)CSc3ccc(Cl)cc3)cc2)c1
#42 COc1ccc(N=C2SC(C(=O)Nc3ccc4c(c3)OCO4)CC(=O)N2C)cc1 (stereo not drawn)
#43 COc1ccc(-c2noc(-c3cc(C)cc(C)c3)n2)cc1OC
#44 COc1ccc(CC(=O)NNC(=O)c2ccco2)cc1
#45 CC(=O)Nc1ccc(SC[C@H](Cc2ccccc2)N2CCN(CC(C)C)CCC2=O)cc1
#46 O=C(CNCc1ccccc1Cl)Nc1ccc2c(c1)OCCO2
#47 O=C(COC(=O)c1ccccn1)c1ccc(Br)cc1
#48 CCc1ccccc1OCC(=O)Nc1ccc(N2CCCC2)cc1C
#49 CCOc1ccc(NC(=O)CSc2nc3ccccc3nc2N2CCCC2)cc1
#50 O=C(Nc1ccc(F)cc1)C(c1ccccc1)N1CCN(S(=O)(=O)c2ccc3ccccc3c2)CC1 (stereo not drawn)
assay / compound,41,42,43,44,45,46,47,48,49,50
Mtb hypoxia inh,-11,-2,12,8,x,-1,4,9,5,4
BJeLR lethal,-6,1,-4,-5,9,8,-3,x,-10,-6
RN4220 kill,-2.5,1.9&-5.2,8.1,0.4,x,2.3,14,5.5,5.6,-6.1
PrP 5UTR inh,-75,16&-7,-15,-11,2,-95,-32,-1,-59,1
Autofluor counter,2163,3994&2688,4402,3710,2942,6224,10114,23739*,5922,2124
ugtP null kill,-25,5&6,7,0,x,1,-9,0,-12,17
Mtb hypoxia inh growth,2,9,2,-4,x,12,6,34,7,-1

Ordered by length of the SMILES (low to high): 5 of the compounds above
#47 O=C(COC(=O)c1ccccn1)c1ccc(Br)cc1
#46 O=C(CNCc1ccccc1Cl)Nc1ccc2c(c1)OCCO2
#49 CCOc1ccc(NC(=O)CSc2nc3ccccc3nc2N2CCCC2)cc1
#41 Cc1ccc(C)c(NS(=O)(=O)c2ccc(NC(=O)CSc3ccc(Cl)cc3)cc2)c1
#50 O=C(Nc1ccc(F)cc1)C(c1ccccc1)N1CCN(S(=O)(=O)c2ccc3ccccc3c2)CC1 (stereo not drawn)
assay / compound,47,46,49,41,50
Mtb hypoxia inh,4,-1,5,-11,4
BJeLR lethal,-3,8,-10,-6,-6
RN4220 kill,14,2.3,5.6,-2.5,-6.1
PrP 5UTR inh,-32,-95,-59,-75,1
Autofluor counter,10114,6224,5922,2163,2124
ugtP null kill,-9,1,-12,-25,17
Mtb hypoxia inh growth,6,12,7,2,-1

Later entries
#51 O=C(CN1CCN(c2ccccn2)CC1)Nc1cc(F)ccc1F
#52 N=c1ncn(Cc2ccccc2)c2nc(SCCOc3ccccc3)[nH]c12
#53 Cc1sc(NC(=O)CN(CCc2ccccc2)C(=O)C2CC2)c(C(N)=O)c1C
#54 Cc1ccc(/C=C2\SC(=S)N(CCC(=O)NNS(=O)(=O)c3ccc(C)cc3)C2=O)cc1
#55 CCOc1ccc(OCC(=O)c2c(O)c3ccccc3oc2=O)cc1
#56 CC(C)N1C(=O)CCC1C(=O)N1CCCc2ccccc21 (stereo not drawn)
#57 CCn1c2ccccc2c2cc(NC(=O)COC(=O)c3cc(S(N)(=O)=O)c(Cl)cc3Cl)ccc21
#58 CN(C)S(=O)(=O)c1cccc(NC(=O)c2cccc(N3C(=O)CCC3=O)c2)c1
#59 COCCn1c(-c2ccccc2)nc(=S)c2c1CC(C)(C)OC2
#60 O=C(c1ccco1)N1CCN(Cc2nc3cc(Cl)ccc3c(=O)[nH]2)CC1
assay / compound,51,52,53,54,55,56,57,58,59,60
Mtb hypoxia inh,-1,2,6,10,x,4,15,4,x,5
BJeLR lethal,3,4,4,-10,-1,1,-20,x,3,-3
RN4220 kill,1.9,1.0,0.4,8.5,8.7,1.6,-9.8,-0.5,1.2,2.1
PrP 5UTR inh,-31,-5,-19,-23,-2,-13,-26,-11,-5,-30
Autofluor counter,3897,9170,4302,2149,2672,15871,3975,4997,2565,4466
ugtP null kill,0,4,8,6,7,10,5,1,3,3
Mtb hypoxia inh growth,-3,1,16,0,x,7,3,0,x,2

#61 CC(Oc1ccc2oc(-c3ccccc3)c(C(=O)O)c2c1)C(=O)O (stereo not drawn)
#62 O=C(Nc1ccccc1)C1CC=CC2CCN(C3CCCCC3)C(=O)C21 (stereo not drawn)
#63 C[n+]1cc(-c2ccccc2)n2c1CCCCC2
#64 CC(C)(C)OC(=O)NCCCCCNC(=O)c1nc[nH]c1C(=O)N1CCN(c2ccccc2)CC1
#65 CCCC(=O)Nc1cc(Cl)ccc1N1CCN(C(=O)CC)CC1
#66 COC(=O)c1c(C)[nH]c(C(=O)OCC(=O)c2c(N)n(CC(C)C)c(=O)n(C)c2=O)c1C
assay / compound,61,62,63,64,65,66
Mtb hypoxia inh,0,5,1,6,16,3
BJeLR lethal,-6,x,10,x,8,x
RN4220 kill,-1.6,2.9,0.4,2.8,0.6,-0.4
PrP 5UTR inh,-13,x,-34,-55,-9,-14
Autofluor counter,16623*,x,11304,4481,4941,4055
ugtP null kill,2,-6,-1,0,2,-10
Mtb hypoxia inh growth,3,9,-1,11,12,9
